Screening results (PubChem)
Rango dissoc inh: inhibitors of RanGTP-induced Rango-importin beta complex dissociation. O95149+P62826. Biochemical FRET Rango-importin beta, RanGTP-induced dissociation. Potency, µM (titrated, usually from 46.1 µM), without a hit: top-dose activity change, negative = inhibition. 340,000 compounds, 0.071% hits; active means falling FRET ratio curve, often poorly fitted, with flat reads before Ran was added; inconclusive means other falling curves, or compound fluorescence or quenching; inactive means flat or rising ratio curve;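 also: potency is read from the fitted curve at half-maximal effect; % of control where 0% means no effect; nearly all actives have a fitted effect of over 45% in size; -100% = wells without RanGTP and RCC1; the record marks most hits as doubtful in a second field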
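Compounds preincubate 5 min with complex of recombinant Rango and importin beta in PBS with 1 mM DTT. Ran (0.6 uM) loaded with 2 mM GTP plus 0.2 uM RCC1 starts dissociation; FRET is recorded 45 min later.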
GLA inh pH 4.5: blocks human alpha-galactosidase A at pH 4.5 | purified enzyme, 4-MU-alpha-Gal fluorescence, pH 4.5 | P06280 | AID 1467 | activity change, negative = inhibition, % at 105 µM | 230,000 tested, under 10 active; inconclusive = small, poorly fitted or top-dose-only inhibition, or a rising curve; inactive = flat fitted curve, though single readings scatter; no compound was filed as active;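 also: 0% = full activity with enzyme and -100% = basal without enzyme; dose as in the result columns while the protocol names 77 µM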
Target sequence (P06280 whole entry, looked up): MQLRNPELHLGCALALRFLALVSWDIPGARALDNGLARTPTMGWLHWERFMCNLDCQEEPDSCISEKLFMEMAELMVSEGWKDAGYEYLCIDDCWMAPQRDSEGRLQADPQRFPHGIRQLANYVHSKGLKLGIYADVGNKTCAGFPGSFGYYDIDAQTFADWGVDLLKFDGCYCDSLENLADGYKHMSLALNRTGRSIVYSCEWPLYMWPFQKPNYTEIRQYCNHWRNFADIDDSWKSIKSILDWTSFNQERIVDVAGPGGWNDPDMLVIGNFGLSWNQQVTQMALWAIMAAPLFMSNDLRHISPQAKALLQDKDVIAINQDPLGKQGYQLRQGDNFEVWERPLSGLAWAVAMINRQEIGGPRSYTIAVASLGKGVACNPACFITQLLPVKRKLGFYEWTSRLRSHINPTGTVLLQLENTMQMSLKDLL
Rango complex inh: inhibitors of Rango-importin beta complex formation; 340,000 compounds, 0.031% hits; AID 540263; Potency, µM (series often up to 92.2 µM), without a hit: at the highest dose inhibition of complex formation; Rango CFP/YFP FRET sensor + importin beta, 45 min; Q14974; active = rising FRET ratio curve, often small or poorly fitted; inconclusive = mostly compound fluorescence or quenching in the first reads; inactive = flat curves in all reads;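 also: potency is read from the fitted curve at half-maximal effect; 0% = DMSO wells and 100% = buffer wells lacking importin beta; nearly all actives have a fitted effect of over 15% in size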
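FRET biosensor Rango (snurportin 1 IBB between N-terminal EYFP and C-terminal Cerulean), 50 nM in PBS/1 mM DTT/0.02% Tween-20/0.1% BSA, preincubated 5 min RT with compound; 0.125 microM importin beta added, 45 min RT, CFP/YFP FRET ratio read.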
miR-21 reporter: miR-21 reporter, rising signal; HeLa miR-21 FLuc reporter, luciferase, 48 h; 340,000 tested, under 10 active; Potency, µM (series often up to 38.3 µM), inactives show top-dose reporter change, positive = more light; active = well fitted rising curve with a large enough effect; inconclusive = small, poorly fitted or top-dose-only effect; inactive = no such curve, though single readings can be large or run the other way;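 also: % of control where 0% means no effect; miR-21 action dims this reporter so a rising signal means less miR-21 action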
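HeLa miR-21-FLuc reporter line, endogenous miR-21; 2000 cells/well in DMEM/10% FBS; compound titration up to ~40uM final, 48 h, 37 degree Celsius; luciferase detection reagent, 15 min lysis, CCD luminescence.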
* hit, by the source's call; ? = inconclusive; nt = not tested or not shown; & = joins results of further samples. Some of the compounds tested; the hit share may differ from the screen's.

mol	Rango dissoc inh	GLA inh pH 4.5	Rango complex inh	miR-21 reporter
COc1ccc(N2CCN(C(=O)CSc3nnc4c5cc(C)ccc5n(C)c4n3)CC2)cc1	-15.8%	7.8	1.2%	-7.0%
CSc1ccccc1NC(=O)CSCc1nc2sc(C)c(C)c2c(=O)[nH]1	-9.5%	nt	?	nt
COc1ccc(C2CC(c3ccc(Cl)cc3)n3nc(N)nc3N2)cc1 (centres undefined)	0.9%	1.0	?	-13.4%
C#CCOCCOCCOCCNc1nc(N2CCN(C(=O)[C@H](CCCCN)n3cc([C@@H](N)[C@H](C)CC)nn3)CC2)nc(N2CCN(C(=O)[C@H](CCCCN)n3cc([C@@H](N)CC(N)=O)nn3)CC2)n1	-14.5%	nt	?	nt
O=C(C[C@@H]1C/C=C/CC[C@@H](Cc2ccc(F)cc2)C(=O)OCCNC1=O)N[C@H](CO)Cc1ccccc1	18.9%	nt	0.8%	nt
CC1CN(C(=O)CN2C(=O)NC3(CCCCCCC3)C2=O)CC(C)O1 (centres undefined)	28.3%	1.9	3.7%	-1.3%
COc1cc(OC)c2c(C)cc(=O)oc2c1	-14.1%	16.2	1.9%	5.7%
O=C(NCc1nnc(SCC(=O)N2CCCCC2)o1)c1ccc(F)cc1	16.9%	nt	-1.5%	1.4%
C[C@H](NC(=O)C1CCN(S(=O)(=O)c2ccccc2)CC1)C(=O)NCc1cccc(C(F)(F)F)c1	-0.7%	nt	2.5%	4.0%
COc1ccc(N(C(=O)CNC(=O)c2cccs2)C(C(=O)NCC2CCCO2)c2ccccc2)cc1OC (centres undefined)	0.9%	3.9	-1.9%	-3.0%
COc1ccc(CC(=O)NNS(=O)(=O)c2ccc(F)cc2)cc1	5.9%	nt	0.6%	4.0%
COc1ccccc1NS(=O)(=O)c1ccc(O)c(C(N)=O)c1	-5.4%	-13.9	-2.0%	-3.2%
Cn1c(C(=O)N2CCCC(C(=O)c3ccc(C(F)(F)F)cc3)C2)cc(=O)n(C)c1=O (centres undefined)	26.9%	4.3	-4.0%	0.7%
c1ccc(CCNc2ncnc3ccccc23)cc1	18.9%	3.6	4.2%	14.1%
CSCCC(NC(=O)c1cccc([N+](=O)[O-])c1)c1nc2ccccc2[nH]1 (centres undefined)	-12.4%	7.1	-0.7%	-1.7%
O=C(CCNS(=O)(=O)c1ccccc1C(F)(F)F)NNC(=O)c1csc(N2CCOCC2)n1	14.0%	nt	?	nt
CCC1Sc2ccc(S(=O)(=O)CCC(=O)Nc3ccc(NC(C)=O)cc3)cc2NC1=O (centres undefined)	0.2%	nt	-3.2%	0.5%
COCc1c(C(=O)Nc2ccc(Cl)cc2F)oc2ccccc12	10.7%	-1.5	-2.5%	-52.3%
COc1cc(CNC(=O)c2nc(Cn3nc(C)c(Br)c3C)no2)cc(OC)c1	-9.6%	-12.8	-4.7%	-2.3%
Cc1c(C(=O)Nc2ccccc2F)cnn1-c1ccccc1	1.3%	nt	0.7%	-34.9%
O=C(C1CC(=O)N(c2ccccc2)C1)N1CCN(c2ccc(F)cc2)CC1 (centres undefined)	-15.7%	nt	0.4%	-5.2%
Cc1cc(C(=O)NCCC(C)C)c2ccccc2n1	-6.1%	-6.9	-1.2%	3.5%
Cn1cnc2ncnc(Oc3ccc(Br)cc3)c21	7.2%	nt	-0.5%	nt
CN(C)C(=O)CCc1ccc2c3c([nH]c2c1)[C@]1(C)[C@@H](C(=O)N2CCCCC2)C[C@H](CC(=O)NC(C)(C)C)C(=O)N1CC3	-1.7%	nt	-2.1%	nt
Cc1nn(CCC(=O)NCc2ccc(OC(C)C)cc2)c(=O)c2nn(-c3ccccc3)c(C)c12	3.9%	nt	1.7%	2.9%
Fc1ccc(C2CCCN2Cc2nc(CC3CC3)no2)cc1 (centres undefined)	-8.6%	-1.8	0.9%	5.7%
O=C(NC(=S)Nc1nc2c(ccc3ccccc32)s1)c1cccs1	0.6%	-4.8	-1.1%	-11.7%
CCCSc1nnc(Nc2ccccc2C)s1	7.8%	-4.0	1.4%	-63.3%
COc1cc(NC(=S)NCc2cccnc2)cc(OC)c1OC	-2.2%	2.2	0.4%	2.0%
Nc1nnc(CC(=O)N/N=C/c2cccc(OCCOc3ccccc3)c2)s1	19.7%	3.0	-1.7%	-33.9%

Ordered by the number under Rango dissoc inh (smallest number first): four from the list above.
mol	Rango dissoc inh	GLA inh pH 4.5	Rango complex inh	miR-21 reporter
O=C(C1CC(=O)N(c2ccccc2)C1)N1CCN(c2ccc(F)cc2)CC1 (centres undefined)	-15.7%	nt	0.4%	-5.2%
O=C(NC(=S)Nc1nc2c(ccc3ccccc32)s1)c1cccs1	0.6%	-4.8	-1.1%	-11.7%
Cn1cnc2ncnc(Oc3ccc(Br)cc3)c21	7.2%	nt	-0.5%	nt
Nc1nnc(CC(=O)N/N=C/c2cccc(OCCOc3ccccc3)c2)s1	19.7%	3.0	-1.7%	-33.9%

Additional compounds follow:
mol	Rango dissoc inh	GLA inh pH 4.5	Rango complex inh	miR-21 reporter
Cc1cc(C)nc(N(C#N)CC(=O)c2ccccc2)n1	-12.1%	-1.2	0.6%	-3.3%
O=C(CCNc1n[nH]c(=O)[nH]c1=O)N/N=C/c1ccccc1Br	0.4%	-5.7	-4.7%	-0.4%
CC(=O)N1CCN(C(=S)NCCc2ccccc2)CC1	19.1%	3.3	2.7%	-15.5%
COC(=O)Nc1nc(Sc2ncc(C(F)(F)F)cc2Cl)n[nH]1	-6.4%	-2.0	-1.9%	-8.6%
COc1ccc(/C=N/Nc2cc(N3CCOCC3)ncn2)c(OC)c1	0.2%	nt	0.6%	1.8%
CO/N=C(\CCC(=O)O)c1cccs1	0.5%	0.1	0.9%	1.7%
O=C(c1cc2ccccc2oc1=O)N(Cc1ccccc1)Cc1ccc2c(c1)OCO2	-12.7%	-9.2	-2.6%	-2.7%
COC(=O)CSc1nc2nc(-c3cccs3)cc(C(F)(F)F)c2c(=O)[nH]1	0.0%	nt	-2.4%	-6.6%
O=C(CSc1c(Cl)cccc1Cl)NC1CCCc2ccccc21 (centres undefined)	8.4%	-6.3	0.8%	-8.4%
CC(=O)Nc1cc(C(=O)N2CCN(C)CC2)ccc1S(=O)(=O)c1ccc(C)cc1	-1.7%	-11.3	5.5%	-4.5%

More records:
| SMILES | Rango dissoc inh | GLA inh pH 4.5 | Rango complex inh | miR-21 reporter |
| --- | --- | --- | --- | --- |
| O=C(Nc1ccc2c(c1)OCO2)C1CCCCN1S(=O)(=O)c1ccc(F)cc1 (centres undefined) | 0.6% | 4.4 | -0.7% | -17.4% |
| O=C(COC(=O)CCS(=O)(=O)c1ccc(Cl)cc1)NCCc1ccc(Cl)cc1Cl | 5.1% | 13.7 | 0.6% | 1.1% |
| O=C(Cc1cccs1)Nc1nnc(Cc2ccc(F)cc2)s1 | nt | -7.8 | nt | -5.3% |
| CCC(=O)N1c2ccc(S(=O)(=O)CCC(=O)Nc3ccc(OC)cc3OC)cc2CC1C (centres undefined) | 5.8% | nt | -2.5% | -4.1%&1.0% |
| Cc1ccc(C(C)C)c(OCC(O)CN(C)Cc2ccccc2)c1 (centres undefined) | 10.3% | nt | 3.2% | 1.8% |
| COc1ccc(-c2csc(N3CCN(c4cc5c(cc4Cl)nc(-c4ccncc4)n5CCOCCO)CC3)n2)cc1 | ? | nt | ? | 5.4% |
| CO/N=C(\C(=O)O)c1csc(NN=C(C)C)n1 | -1.8% | 0.8 | ? | -26.8% |
| COC(=O)c1nn(-c2ccc(-c3ccccc3)cc2)cc1O | -18.5% | 0.8 | 12.8% | 7.9% |
| O=C(COC(=O)c1ccc(Cl)nc1)Nc1ccc(N2CCCCC2)cc1 | 8.1% | nt | -3.5% | nt |
| COC(=O)[C@@]12CCCCN1[C@H](c1ccc(-c3ccccc3)cc1)[C@H]1C(=O)N(C)C(=O)[C@H]12 | 19.2% | nt | 0.7% | nt |
| C[C@H](OC(=O)N1CCN(C(c2ccccc2)c2ccccc2)CC1)[C@@H]1O[C@@]2(C)CCC[C@H]1O2 | -4.8% | nt | 4.2% | nt |
| Cc1ccc(C(=O)N2CCN(c3ncc(C(F)(F)F)cc3Cl)CC2)s1 | -11.0% | nt | -1.4% | -10.1% |
| CCCc1nc2sc3c(c2c(=O)n1NC(=O)c1ccco1)CC(C)(C)OC3 | -10.0% | 9.3 | 0.1% | -13.0% |
| CCC(=O)Nc1cc2[nH]c(=O)cc(C)c2cc1C | -9.4% | 6.7 | -1.6% | 0.6% |
| Cc1[nH]nc(SCC(=O)N2CCCC2)c1[N+](=O)[O-] | 1.2% | 1.2 | ? | -17.7% |
| CCOc1cccc2cc(C(=O)OCC(=O)Nc3c(C)cccc3CC)c(=O)oc12 | -3.4% | nt | -0.6% | nt |
| COc1ccc(S(=O)(=O)N2CCCC(C(=O)N3CCOCC3)C2)cc1Cl (centres undefined) | 16.5% | nt | -3.5% | -1.3% |
| O=C(OCC(=O)N1CCc2ccccc21)c1cncc(Br)c1 | -11.0% | -0.5 | -1.4% | -1.1% |
| COc1cc([N+](=O)[O-])cc2cc(C(=O)N3CCN=C3c3ccccc3)c(=O)oc12 | -17.5% | -4.7 | -1.5% | -1.1% |
| COCC(C)NS(=O)(=O)c1ccc(C(=O)NC(Cc2ccccc2)c2ccccc2)cc1 (centres undefined) | 1.0% | nt | -3.3% | -1.0% |
| Nc1cccc(C(=O)N/N=C/c2ccsc2)c1 | -8.9% | 3.6 | 1.6% | -21.6% |
| COc1cccc2oc3ccc(C#CC4(N)CCCCC4)cc3c(=O)c12 | 1.3% | nt | 2.7% | -92.2% |
| O=[N+]([O-])c1ccc(Cl)c(-c2ccc(/C=N/c3c(-c4ccco4)nc4ccccn34)o2)c1 | -11.0% | 0.3 | -2.1% | 0.5% |
| O=C(NCC1CCCO1)c1ccccc1 (centres undefined) | 2.9% | 5.8 | 4.9% | -7.2% |
| CC(Oc1ccc(-c2ccccc2)c(F)c1)c1ccn(S(=O)(=O)c2cccc3ccccc23)n1 (centres undefined) | 5.5% | 1.8 | -2.5% | 4.6% |
| COCCN(C(=O)c1c(C)noc1C)c1c(N)n(CC(C)C)c(=O)[nH]c1=O | -5.5% | nt | -3.0% | nt |
| COc1ccc(CN2CCCC(CO)(Cc3ccc(F)cc3)C2)c(OC)c1OC (centres undefined) | -10.4% | nt | 1.1% | 10.9% |
| CC(=O)c1ccc(Nc2nc(C)cc(C)n2)cc1 | 0.0% | nt | -1.1% | -56.6% |
| Cc1cccc(C)c1NC(=O)CNCC(=O)Nc1c(C)cccc1C | -1.7% | nt | 4.2% | -1.8% |
| N#Cc1ccsc1NC(=O)COC(=O)c1ccc(NC(N)=O)cc1 | -4.1% | -2.7 | -1.5% | -48.4% |
| CN1CCN(CCC(=O)Nc2ccccc2)CC1 | -2.9% | nt | 0.0% | 0.5% |
| Cc1occc1-c1nnc(SCCCC(=O)c2ccc(F)cc2)n1C | 2.8% | 5.0 | 1.8% | 4.1% |
| COc1ccc(C(=O)OC(C)CN2CCOCC2)cc1OC (centres undefined) | 25.5% | 5.2 | 1.2% | -6.6% |
| CCOc1c(C)cnc2c1c(=O)n(Cc1ccccc1Cl)c(=O)n2C | -0.4% | nt | -3.3% | 1.8% |
| OC(CN1CCCCCC1)CN(c1ccccc1)c1ccccc1 (centres undefined) | -4.4% | nt | -0.3% | 4.4% |
| Cc1cc(C)nc(SCc2nnc(SCC(=O)Nc3ncc(C)s3)n2Cc2ccco2)n1 | 0.2% | -4.9 | 0.3% | -3.7% |
| COC(=O)C1=C(C)N(c2ccccc2)C(=S)NC1c1ccccc1C(F)(F)F (centres undefined) | -11.5% | -0.4 | -3.3% | -3.3% |
| COc1ccc(OC)c(NC(=O)/C=C/c2ccccc2[N+](=O)[O-])c1 | -1.6% | 3.7 | 1.1% | -19.5% |
| CCOC(=O)c1ccc(Nc2nc(-c3cccnc3)nc3ccccc23)cc1 | 3.6% | 9.3 | -2.2% | 12.8% |
| COCc1ccccc1Cn1cnc2c1c(=O)n(C)c(=O)n2C | -1.0% | 9.0 | -1.7% | 2.1% |
